Compound activity: PubChem, National Center for Advancing Translational Sciences (NCATS)
KAT2A inh: GCN5L2 (KAT2A) acetyltransferase inhibition. Q92830. GCN5L2 HAT assay, ThioGlo1 CoA-SH fluorescence. Potency, µM (doses to about 58.9 µM), for the others: at the highest dose activity change, negative = inhibition, hits mostly inhibitors. 0.21% of 390,000 active; active means well fitted inhibition curve with a large enough effect; inconclusive means small, poorly fitted or top-dose-only effect, or another doubt; inactive means no such curve, though single readings can be large or run the other way
Target sequence (Q92830 whole entry, looked up): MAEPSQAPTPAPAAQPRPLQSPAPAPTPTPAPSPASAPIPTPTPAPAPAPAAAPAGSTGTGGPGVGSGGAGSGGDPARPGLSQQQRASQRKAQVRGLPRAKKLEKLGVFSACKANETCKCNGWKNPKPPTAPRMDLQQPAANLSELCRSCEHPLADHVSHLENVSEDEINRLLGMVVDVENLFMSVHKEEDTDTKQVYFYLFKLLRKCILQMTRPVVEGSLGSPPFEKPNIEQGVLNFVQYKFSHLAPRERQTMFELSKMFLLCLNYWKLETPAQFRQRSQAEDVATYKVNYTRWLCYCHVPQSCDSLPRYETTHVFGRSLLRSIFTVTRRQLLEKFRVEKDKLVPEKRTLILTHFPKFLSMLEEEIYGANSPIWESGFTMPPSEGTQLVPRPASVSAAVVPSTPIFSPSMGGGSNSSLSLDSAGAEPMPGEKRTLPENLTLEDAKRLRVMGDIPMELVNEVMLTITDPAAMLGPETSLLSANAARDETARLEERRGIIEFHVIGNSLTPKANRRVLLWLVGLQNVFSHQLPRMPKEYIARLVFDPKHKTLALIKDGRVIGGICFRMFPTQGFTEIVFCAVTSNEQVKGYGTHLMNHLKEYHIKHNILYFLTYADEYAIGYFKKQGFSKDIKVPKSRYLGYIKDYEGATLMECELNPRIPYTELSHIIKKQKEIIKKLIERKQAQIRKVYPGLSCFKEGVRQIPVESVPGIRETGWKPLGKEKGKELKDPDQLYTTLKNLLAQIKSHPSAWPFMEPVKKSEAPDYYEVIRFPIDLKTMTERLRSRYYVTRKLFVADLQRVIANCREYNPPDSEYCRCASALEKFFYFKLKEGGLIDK
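GCN5L2 (20 nM) in 50mM HEPES pH 7.5, 0.1mM EDTA, 0.01% Tween-20 preincubated 15 min with compounds at room temperature. Reaction started with H3(1-25) 75uM, acetyl-CoA 70uM, ThioGlo1 50uM; CoA-thiol fluorescence (Ex340/Em540) read at 0 and 20 min.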
* hit, by the source's call; ? = inconclusive; & = joins results of further samples; [ ] = another dose, or the depositor's remark. On the % scale 0 is the no-effect control and ±100 the full control effect; potency means the concentration at half of the fitted maximal effect. An excerpt; most or all hits stand in other tables.

SMILES	KAT2A inh
Cn1c(=O)c2c(nc(N/N=C/c3ccc(OC(=O)c4ccco4)cc3)n2Cc2ccc(F)cc2)n(C)c1=O	-20%
Cc1ccccc1NC(=O)NNC(=O)COc1ccc2ccccc2c1	-13%
O=C(NC1CCCCC1)C1CCCN1S(=O)(=O)c1ccc(F)cc1 (configuration not stated)	-2%
CN1[C@@H]2CC(OC(=O)[C@H](CO)c3ccccc3)C[C@H]1[C@@H]1O[C@@H]12 (some centres not stated)	-7%&-3%&-7%
Cc1ccc(NC(=S)N(CCN2CCOCC2)Cc2cc3cc4c(cc3[nH]c2=O)OCO4)cc1	-2%
O=C(CC1NCCNC1=O)Nc1ccccc1F (configuration not stated)	0%
CC(c1nnc(SCC(=O)Nc2sccc2C#N)n1-c1ccc(Cl)cc1)N(C)C (configuration not stated)	-1%
Cc1ccc(S(=O)(=O)N2CCN(C(=O)c3cc4c(C)nn(-c5ccccc5)c4s3)CC2)cc1	-17%
Cc1cc(C)c2c(c1)/C(=N\N=c1\sc3ccccc3n1C)C(=O)N2	-1%
Cc1ccc(CNC(=O)Cc2ccc(NC(=O)N3CCSc4ncccc43)cc2)cc1	-9%
COc1ccc(OC)c(-n2nnnc2SCC(=O)Nc2ccc(C(=O)N3CCCCC3)cc2)c1	-17%
Cc1cc(=O)oc2cc(OCCCC[n+]3ccccc3)ccc12	-2%
N#Cc1cc2c(=O)n3ccccc3nc2n(-c2nnc(SCc3ccccc3)s2)c1=O	-9%
Cc1ccc2cc3c(NC(=O)C4CCCO4)nn(CC(C)C)c3nc2c1 (configuration not stated)	-11%
O=C(COC(=O)c1ccccc1Br)Nc1cc(S(=O)(=O)N2CCOCC2)ccc1N1CCCC1	-13%
COC(=O)C(Cc1ccccc1)NC(=O)CNC(=O)c1ccc(Br)o1 (configuration not stated)	-3%
Cc1nc2nc(CNC(=O)OC(C)(C)C)nn2c(C)c1CCC(=O)NCc1ccccc1Cl	-5%
CCOC(=O)C(Cc1ccccc1)NS(=O)(=O)c1ccc(NC(C)=O)cc1 (configuration not stated)	?
CCOc1ccc(/C(O)=C2/C(=O)C(=O)N(CC3CCCO3)C2c2ccco2)cc1 (configuration not stated)	0%
CCN(CC)CCN1C(=O)C(=O)/C(=C(/O)c2ccc(S(=O)(=O)N3CCOCC3)cc2)C1c1ccc(Cl)cc1 (configuration not stated)	-4%
Nc1nc2nc(-c3ccc(Cl)cc3)cc(C(F)(F)F)n2n1	?
COc1ccc(NC(=O)c2noc3c2CCCCC3)cc1	-15%
O=c1n(-c2ccccc2)c(=O)n2n1CC(O)C2	2%
COC(=O)c1ccccc1NC(=O)COc1ccc2c(c1)OCO2	9%
CC(C)=C(NC(=O)c1ccccc1)C(=O)NCCc1nc2ccccc2[nH]1	-7%
S=C(NCc1ccccc1)NCc1ccc(CNC(=S)NCc2ccccc2)cc1	-9%
CS(=O)(=O)Nc1ccc(C(=O)NCCSc2ccc(Cl)cc2)cc1	-11%
CCOc1ccccc1NC(=O)C(=O)c1cc(C)n(-c2cccc(C)c2C)c1C	0%
O=C(Nc1nc(-c2cccs2)c(C(=O)C(F)(F)F)s1)c1ccccc1	-15%
COc1cccc(CN2CCNC(=O)C2CC(=O)N(C)CC2CCOCC2)c1 (configuration not stated)	-1%
COc1ccc(NC(=O)Nc2ccon2)c(OC)c1	-8%
COc1ccccc1N1CCN(C(=O)CCn2c(=O)[nH]c3ccccc3c2=O)CC1	-5%
Cc1cc(C(=O)NCc2ccccc2)c2c(C)nn(-c3cccc(F)c3)c2n1	-21%
CCOP(=O)(OCC)C(NC(=O)Nc1ccc(Cl)cc1)C(N)=O (configuration not stated)	-7%
CCc1ccc(C(=O)Nc2cc(S(=O)(=O)N3CCOCC3)ccc2N2CCOCC2)cc1	-7%
CCN(CC)c1ccc(NC(=O)CSc2nc3ccccc3c(=O)[nH]2)cc1	-3%
Cc1ccc(N2CC(c3nc4ccccc4n3CCC3CCCCC3)CC2=O)cc1 (configuration not stated)	-7%
CC(=O)C1=C(O)C(=O)N(c2ccc(S(N)(=O)=O)cc2)C1c1ccccc1F (configuration not stated)	-6%
CCOc1ccc(NC(=O)COc2ccc(C(=O)NC3CCCc4ccccc43)cc2OC)cc1 (configuration not stated)	4%
O=C(NC(=S)NC1CCCC1)c1ccccc1Br	1%

Next section, overlapping the part above by two compounds.
SMILES	KAT2A inh
CCOc1ccc(NC(=O)COc2ccc(C(=O)NC3CCCc4ccccc43)cc2OC)cc1 (configuration not stated)	4%
O=C(NC(=S)NC1CCCC1)c1ccccc1Br	1%
Cn1ncc(Br)c1NC(=O)Nc1ccc(OC(F)(F)F)cc1	0%
CC(=O)Nc1ccc(S(=O)(=O)NNC(=O)c2ccc(C)cc2)cc1	-1%
CN1CCc2nc(SCCOc3ccccc3)c(C#N)cc2C1	-19%
O=c1[nH]nc(Sc2ncnc3sccc23)n1CCc1ccccc1	-13%
COc1ccc2nc(NC(=O)CSc3n[nH]c(N)n3)sc2c1	-1%
CCN(CC(=O)NCc1cccs1)C(=O)CCC(=O)c1ccc(F)cc1	-13%
CC(C)(C)c1ccc(C(=O)CSc2ncn[nH]2)cc1	?
O=C(CSc1nc(=O)n(Cc2ccncc2)c2c1CCC2)Nc1ccc(F)cc1F	1%
Cc1ccc(C)c(NC(=O)C(c2ccccc2)N2CCN(CC(=O)N3CCOCC3)CC2)c1 (configuration not stated)	2%
COC(=O)c1sc(NC(=S)NC(=O)c2ccccc2)nc1C	-4%
CCOC(=O)c1sc(-c2ccccc2)cc1NC(=O)CSc1nnnn1C	-11%
CCOC(=O)c1ccccc1NC(=O)CN(c1ccccc1OC)S(C)(=O)=O	-2%
Cc1ccccc1NC(=O)CSc1nc2ccccc2c(=O)n1C	2%
NS(=O)(=O)c1ccc(CCNC(=O)COC(=O)C2COc3ccccc3O2)cc1 (configuration not stated)	0%
CCc1cccc2sc(N3CCN(C(=O)c4cc5ccccc5cc4OC)CC3)nc12	-10%
CCOCc1c(C(=O)NC2CCCCCC2)oc2ccccc12	-5%
CC(C)(C)NC(=O)CN(C(=O)C(=O)Nc1ccc2c(c1)OCCO2)C(C)(C)C	-2%
C=CCN(Cc1cn(C)nc1-c1cccc(Cl)c1)C1CCS(=O)(=O)C1 (configuration not stated)	-2%
CC(C)c1ccccc1OCC(O)CN(CC(O)COc1cccc2ccccc12)C(C)C (configuration not stated)	-15%
Cc1ccc(S(=O)(=O)N2CCCN(S(=O)(=O)C3CCS(=O)(=O)C3)CC2)cc1 (configuration not stated)	0%
Cc1ccc2[nH]c(=O)c(CN(CCCO)S(=O)(=O)c3cccc4nsnc34)cc2c1	-4%
COC(=O)c1ccc(NC(=O)CSc2nc3cc4ccccc4cc3[nH]2)cc1	-2%
Cc1nc2ccc(NC(=O)c3ccc([N+](=O)[O-])cc3[N+](=O)[O-])cc2s1	-5%
O=S(=O)(c1cccc(NC(=S)N2CCN(c3ccccc3F)CC2)c1)C(F)F	-1%
CCc1sc(N(C(=O)Cc2ccccc2)c2cccc(F)c2)nc1-c1ccc(C)cc1	?
CC1CC(C)CN(C(=O)CN2C(=O)NC3(CCCCCC3)C2=O)C1 (configuration not stated)	0%
Cn1c(=O)n(Cc2ccccc2)c(=O)c2c1nc1n2CCCN1CCc1ccccc1	-7%
Cc1ccc(-n2c(C)cc(/C=N/NC(=O)c3ccncc3)c2C)c(C)c1	-10%
Cc1cccc2sc(NC(=O)c3cccc(S(=O)(=O)N4CCc5ccccc54)c3)nc12	-6%
Cc1c(C=O)c2ccccc2n1CC(=O)NCc1ccccc1	-3%
COc1ccc(C(=O)Nc2ccnc(-c3cccnc3)n2)cc1	-13%
S=C(Nc1cccc(Cl)c1)NC1CC2CCCC(C1)N2C1CCCC1 (configuration not stated)	0%
CN(Cc1cccs1)C(=O)CCNS(=O)(=O)c1ccc(Br)cc1	-3%
CCCCOC(=O)Nc1ccc(N2CCCCC2)cc1	-4%
Cc1ccc(OCC(=O)Nc2ccc(F)cc2)cc1C	-3%
Cc1ccc(NC(=O)c2nc[nH]c2C(=O)NCC(=O)OC(C)(C)C)cc1	-20%
Cc1ccc(C)c(OCc2cc(C(=O)N(C)Cc3nccn3C)no2)c1	-13%
S=C(c1c[nH]c2ccc(Br)cc12)N1CCOCC1	-14%
O=C(OCC(=O)N1CCCCC1)c1n[nH]c(=O)c2ccccc12	-5%
COc1ccc(NC(=O)C2CCN(S(=O)(=O)c3ccc(OC)c(OC)c3)CC2)c(OC)c1	-1%

Single values from above.
KAT2A inh, `COc1ccc(C(=O)Nc2ccnc(-c3cccnc3)n2)cc1` : -13%
KAT2A inh, `Cc1ccc(OCC(=O)Nc2ccc(F)cc2)cc1C` : -3%
KAT2A inh, `CC1CC(C)CN(C(=O)CN2C(=O)NC3(CCCCCC3)C2=O)C1` (configuration not stated) : 0%

Additional compounds
SMILES	KAT2A inh
CCn1c(-c2csc(-c3ccc(Cl)cc3)n2)n[nH]c1=S	12%
CC(Sc1n[nH]c(-c2cccs2)n1)C(=O)N1CCCC1 (configuration not stated)	-7%
CCOC(=O)C1C(=O)Nc2nc(C)nn2C1c1ccccc1 (configuration not stated)	-2%
CCOc1ccccc1NC(=O)C1CCN(S(=O)(=O)c2ccc3c(c2)CCCN3C(C)=O)CC1	7%
CCOC(=O)c1ccc(S(=O)(=O)Nc2ccc3cn[nH]c3c2)cc1	-1%
CCC1CCCCN1CCCNC(=O)CCCNC(=O)Cn1cnc2sc3c(c2c1=O)CCCC3 (configuration not stated)	-2%
Cc1ccc(OCC(=O)OCC(=O)NC2CC2)cc1C	-4%
Cc1cccc(N2C(=O)C(Oc3ccc(Cl)cc3Cl)C2C=O)c1C (configuration not stated)	-1%
CC(C)(C)c1ccc(C(O)CCCN2CCC(C(O)(c3ccccc3)c3ccccc3)CC2)cc1 (configuration not stated)	-1%&0%&-9%
CCCCn1c(N)c(N(CCOC)C(=O)C2CC(=O)N(Cc3ccc(C)cc3)C2)c(=O)[nH]c1=O (configuration not stated)	2%
Cn1c(N)c(C(=O)COC(=O)c2ccc(C(F)(F)F)cc2)c(=O)n(C)c1=O	-4%
COc1ccc(-c2nc(CS(=O)CC(=O)NCc3ccccc3Cl)c(C)o2)cc1OC (configuration not stated)	-1%
NC(=O)CC(NC(=O)Cc1ccc(Br)cc1)c1ccc(N2CCN(c3ccc(F)cc3)CC2)c([N+](=O)[O-])c1 (configuration not stated)	4%
C=CCn1c(SCC(=O)c2ccc(Br)cc2)nnc1C(C)NC(=O)Cc1ccc(OC)cc1 (configuration not stated)	-2%[0.501 µM]
O=C(CN1CCN(Cc2ccccc2F)C1=O)NCCN1CCOCC1	-8%
Cn1cnc2c1c(=O)n(Cc1c(Cl)cccc1Cl)c(=O)n2C	-4%
CCSc1nnc(NC(=O)c2cc(C)on2)s1	?
Cc1ccc(Cn2c(SC3CCOC3=O)nc3ccccc3c2=O)cc1 (configuration not stated)	-6%
Cc1ccccc1[C@@H](OCCN(C)C)c1ccccc1	11%[21.4 µM]
CN1CCN(NC(=O)c2ccccc2F)CC1	-5%

6 entries picked at random from the list so far:
SMILES	KAT2A inh
Cc1ccccc1[C@@H](OCCN(C)C)c1ccccc1	11%[21.4 µM]
C=CCn1c(SCC(=O)c2ccc(Br)cc2)nnc1C(C)NC(=O)Cc1ccc(OC)cc1 (configuration not stated)	-2%[0.501 µM]
Cc1ccc(OCC(=O)OCC(=O)NC2CC2)cc1C	-4%
COc1ccc(-c2nc(CS(=O)CC(=O)NCc3ccccc3Cl)c(C)o2)cc1OC (configuration not stated)	-1%
CC(Sc1n[nH]c(-c2cccs2)n1)C(=O)N1CCCC1 (configuration not stated)	-7%
Cc1cccc(N2C(=O)C(Oc3ccc(Cl)cc3Cl)C2C=O)c1C (configuration not stated)	-1%

Remaining list, next part.
SMILES	KAT2A inh
COc1ccc(NC(=S)NCc2cccs2)c(OC)c1	9%
O=C1OCCN1C(=O)[C@H]1[C@H](c2ccc([N+](=O)[O-])cc2)C(c2ccccc2)=NN1c1ccccc1	?
Cc1ccc(N(C)C(=O)Cn2cnc3onc(-c4ccc(F)cc4)c3c2=O)cc1C	-11%
O=C(CNC(=O)C1CCCCC1)OCC(=O)c1ccc(Br)cc1	-5%
Cn1ccnc1SCC(=O)Nc1nc2ccccc2s1	-7%
CCCNC(=O)c1c(C)nn(-c2cccc(C)c2)c1-n1cccc1	-8%
CC(Oc1ccc(Br)cc1)C(=O)Nc1ncn[nH]1 (configuration not stated)	2%
Cc1cc(C)c(N(C(=O)CN2C(=O)c3ccccc3S2(=O)=O)C(C(=O)NCC2CCCO2)c2ccc(F)cc2)c(C)c1 (configuration not stated)	1%
O=C1CC(N2CCc3ccccc32)C(=O)N1c1ccc(F)cc1 (configuration not stated)	0%
Cc1cnc(C(=O)N2CCN(S(=O)(=O)c3ccc(F)c(F)c3F)CC2)cn1	-1%
Cc1sc(NC(=O)c2ccco2)c(CN2CCN(c3ccccn3)CC2)c1C	-10%
O=C(NCCC(=O)N1CCN(S(=O)(=O)c2ccc(Cl)cc2)CC1)Nc1ccccc1	-1%
O=C(CN(Cc1ccccc1Cl)C(=O)c1ccc(CN2CCOCC2)o1)NCC1CCCO1 (configuration not stated)	1%
CNc1ccccc1C(C)(C)c1cn(-c2ccc([N+](=O)[O-])cc2)nn1	-1%
CCC1CCC(NC(=O)Nc2cccc(OC)c2)CC1 (configuration not stated)	-15%
COc1ccc(/C=N/Nc2cc(C)nc(N3CCOCC3)n2)c(OC)c1	0%
Cn1cc(CN2CCCC(CO)(Cc3ccccc3)C2)c2ccccc21 (configuration not stated)	-7%
O=C(Cc1cccs1)Nc1cccc([N+](=O)[O-])c1	-6%

3 entries out of the list above, ordered by the value under KAT2A inh, high to low.
Compound	KAT2A inh
CC(Oc1ccc(Br)cc1)C(=O)Nc1ncn[nH]1 (configuration not stated)	2%
COc1ccc(/C=N/Nc2cc(C)nc(N3CCOCC3)n2)c(OC)c1	0%
O=C(CNC(=O)C1CCCCC1)OCC(=O)c1ccc(Br)cc1	-5%
